Bioassay records deposited in PubChem BioAssay by National Center for Advancing Translational Sciences (NCATS).
NS1 inh: qHTS Assay for Inhibitors of Influenza NS1 Protein Function. AID 2326, 2010. 0.4% of 270,000 active. S. cerevisiae slowed by influenza A NS1, growth recovery by OD600. Potency, µM (titrated, usually from 46.1 µM), for the others: at the top dose activity, positive = more growth; also: actives are rising curves; nearly all actives have a fitted effect of over 50% in size
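Read-out: OD600 growth recovery of NS1-expressing budding yeast. Cells grown overnight at 30C in -URA glucose medium, washed, resuspended and diluted 1:100 in 2% galactose assay medium, pH 6.0. Same strain lacking NS1 served as positive control.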
RE007 growth inh: qHTS Assay for Inhibitors of the HIV-1 protein Vpr; 0.21% of 360,000 active; Potency, µM (titrated, usually from 92.2 µM), without a hit: at the top dose activity change, negative = less growth; AID 651644, 2012; S. pombe RE007 Vpr strain, BacTiter-Glo ATP luminescence, 24 h; control for the full effect not named in the record; active = well fitted falling curve with a large enough effect; inconclusive = small, poorly fitted or top-dose-only effect; inactive = no such curve, though single readings can be large or run the other way;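 also: % is scaled to controls: 0 for no effect and ±100 for the full control effect; nearly all actives have a fitted effect of over 50% in size; the assay follows cell death caused by Vpr and the record does not say whether a fall means rescue or toxicity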
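Fission yeast strain RE007, carrying one chromosomally integrated HIV-1 vpr copy, was seeded at OD 0.01 in PMG+AL medium with 23 nL pinned compound. After 24 h at 30 °C and 99% humidity, viability was read by BacTiter-Glo luminescence.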
2A StopGo: High Throughput Screening for Foot and Mouth Disease Virus Antivirals; human cells with a luciferase reporter of 2A StopGo recoding; control for the full effect not named in the record; Potency, µM (doses to about 57.9 µM), inactives show at the highest dose signal change, negative = less light; 1.2% of 410,000 active; AID 1159524, 2015; active = well fitted falling curve with a large enough effect; inconclusive = small, poorly fitted or top-dose-only effect; inactive = no such curve, though single readings can be large or run the other way; tested in HEK293T cells; also: % is scaled to controls: 0 for no effect and ±100 for the full control effect; nearly all actives have a fitted effect of over 45% in size; luciferase light after 4 h
Cruzain Triton: qHTS Assay for Promiscuous and Specific Inhibitors of Cruzain (with detergent). Cruzipain (Trypanosoma cruzi), P25779. Potency, µM, for inactives: max response, negative = inhibition, usual class: inhibitors. purified cruzain, Z-FR-AMC fluorescence, 0.01% Triton. 0.43% of 200,000 active; active = well fitted curve in the direction sought with a large enough effect; inconclusive = small, poorly fitted or top-dose-only effect, or another doubt; inactive = no such curve, though single readings can be large; an effect the other way counts as inactive or inconclusive;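 also: plate controls were neutral wells for no effect and buffer without enzyme for full effect; nearly all actives have a fitted effect of over 40% in size; top concentration of the series not given in the record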
Target sequence (P25779 123-467 limits assumed): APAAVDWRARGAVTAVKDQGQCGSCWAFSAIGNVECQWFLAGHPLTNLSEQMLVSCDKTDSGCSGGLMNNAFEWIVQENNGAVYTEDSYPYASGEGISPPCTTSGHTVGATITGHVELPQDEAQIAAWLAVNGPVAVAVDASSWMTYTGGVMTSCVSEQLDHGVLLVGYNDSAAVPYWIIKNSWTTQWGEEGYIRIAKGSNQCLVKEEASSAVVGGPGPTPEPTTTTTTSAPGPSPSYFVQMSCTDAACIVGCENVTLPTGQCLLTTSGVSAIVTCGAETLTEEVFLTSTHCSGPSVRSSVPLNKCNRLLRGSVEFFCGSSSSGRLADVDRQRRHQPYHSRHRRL
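Sodium acetate buffer (100 mM, pH 5.5) containing 5 mM DTT and 0.01% Triton X-100 hosted 1.5 nM cruzain and test compound for 15 min at room temperature. Cleavage of 2 uM Z-FR-AMC was then tracked by fluorescence.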
LASV entry inh: qHTS for Inhibitors of binding or entry into cells for Lassa Virus. Lassa virus pseudotype entry inhibition, cell reporter; control for the full effect not named in the record. Potency, µM (series often up to 37.9 µM), inactives show top-dose activity change, negative = inhibition, most hits filed as inhibitors. 1.2% of 300,000 active; active means well fitted inhibition curve with a large enough effect; inconclusive means small, poorly fitted or top-dose-only effect, or effect the other way; inactive means flat fitted curve, though single readings scatter; tested in HEK293 cells; also: % is scaled to controls: 0 for no effect and ±100 for the full control effect; nearly all actives have a fitted effect of over 50% in size; luciferase read-out
SARS PLpro yeast: qHTS of Yeast-based Assay for SARS-CoV PLP. AID 485353, 2010. S. cerevisiae expressing SARS-CoV PLpro, growth rescue; control for the full effect not named in the record. 0.19% of 330,000 active. Potency, µM (doses to about 32.9 µM), inactives show at the highest dose activity, positive = growth rescue; also: 0% is about no effect; nearly all actives have a fitted effect of over 55% in size; growth read by luminescence after 48 h
Cruzain inh noDet: qHTS Assay for Promiscuous and Specific Inhibitors of Cruzain (without detergent); Cruzipain (Trypanosoma cruzi), P25779; purified cruzain, Z-FR-AMC fluorescence, no detergent; Potency, µM, for inactives: max response, negative = inhibition, actives largely listed as inhibitors; 2.3% of 200,000 active; active = well fitted curve in the direction sought with a large enough effect; inconclusive = small, poorly fitted or top-dose-only effect, or another doubt; inactive = no such curve, though single readings can be large; an effect the other way counts as inactive or inconclusive;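 also: plate controls were enzyme without inhibitor for no effect and buffer without enzyme for full effect; nearly all actives have a fitted effect of over 40% in size; top concentration of the series not given in the record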
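Detergent-free condition (0.00005% Triton X-100) in acetate buffer pH 5.5 with DTT. 1.5 nM enzyme and compound were pre-mixed 15 min, then 2 uM Z-FR-AMC substrate added; reaction progress from fluorescence change between first and third reads (60 s).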
MARV entry inh: qHTS for inhibitors of binding or entry into cells for Marburg Virus | Marburg virus pseudotyped entry inhibition, cell reporter; control for the full effect not named in the record; about a third of the inactives were read at about 46 µM | Potency, µM (top dose mostly 37.8 µM), without a hit: at the top dose activity change, negative = inhibition, actives largely listed as inhibitors | 1.8% of 300,000 active; active = well fitted inhibition curve with a large enough effect; inconclusive = small, poorly fitted or top-dose-only effect, or effect the other way; inactive = flat fitted curve, though single readings scatter; tested in HEK293 cells; about a fifth of its hits are not listed in these tables; also: % is scaled to controls: 0 for no effect and ±100 for the full control effect; luciferase read-out
Starred values were filed as active, the others as inactive; u = inconclusive; x = no result given; & = joins results of further samples; [ ] = remark or other dose. Unless noted, calls follow the shape of the dose curve; as a rule, active means well fitted rising curve with a large enough effect; inconclusive means small, poorly fitted or top-dose-only effect; inactive means no such curve, though single readings can be large or run the other way. Potency is read from the fitted curve at half-maximal effect.

The line under a structure holds: NS1 inh | RE007 growth inh | 2A StopGo | Cruzain Triton | LASV entry inh | SARS PLpro yeast | Cruzain inh noDet | MARV entry inh
NC(=O)C1CCN(C(=O)C2CC(=O)N(c3ccc(F)cc3)C2)CC1 (stereo unspecified)
→ 12% | 16% | 2% | x | 25%[46.1 µM] | -5% | x | 0%[46.1 µM]
CN(CC(=O)Nc1ccccc1Cl)C(=O)COC(=O)CNC(=O)c1ccc(Br)o1
→ -2% | u | 4% | x | 3% | x | x | 6%
O=C(c1ccccc1)c1ccccc1N=Cc1c(O)[nH]c(=O)[nH]c1=O
→ 6% | -3% | -5% | x | -9%[46.1 µM] | -2% | x | 13%[46.1 µM]
COc1ccc(C(=O)N[C@H](C(=O)OCn2nnc3ccccc3c2=O)C(C)C)cc1
→ x | -2% | -3% | x | 2% | 0% | x | -13%
Cc1ccc(S(=O)(=O)/N=C/c2ccco2)cc1
→ 5% | -3% | -13% | 1.3% | -6% | 0% | 11% | -1%
O=C(NCC(c1ccc(F)cc1)N1CCOCC1)c1c(F)cccc1F (stereo unspecified)
→ -5% | -9% | -3% | x | -3%[46.1 µM] | 0% | x | 3%[46.1 µM]
COc1ccc(C(CNC(=O)c2cc(F)c(F)c(F)c2F)N2CCOCC2)cc1 (stereo unspecified)
→ x | -9% | -10% | x | u | 0% | x | 4%[46.1 µM]
Nc1c(N2CCN(c3ccccc3)CC2)c2ccccc2oc1=O
→ -14% | -12% | -26% | -6.8% | 16% | 8% | -7% | -18%&-18%
CC(=O)Nc1ccc(NC(=O)c2ccccc2N(C)S(=O)(=O)c2ccc(C)cc2)cc1
→ 1% | 2% | -10% | x | x | -2% | x | x
Cc1ccc(S(=O)(=O)Nc2ccc(C(=O)NCc3cccnc3)cc2)cc1
→ -3% | -3% | 11% | x | 13% | -5% | x | -6%
CCOc1ccc(S(=O)(=O)Nc2cc(SCC(=O)O)c(O)c3ccccc23)cc1
→ -103% | -29% | u | x | x | -32% | x | x
COc1ccc(NC(=O)CSc2nc(NS(=O)(=O)c3ccccc3)cc(=O)[nH]2)cc1
→ 4% | 11% | 22% | 0.8% | 7% | 1% | u | 29%&29%
CCC1CCc2c(sc(NC(=O)c3ccoc3C)c2C(N)=O)C1 (stereo unspecified)
→ -63% | -7% | 4% | -2.4% | 30% | -16% | -18% | -18%[46.1 µM]
O=C(NCCCl)NNc1c(Cl)cc(Cl)cc1Cl
→ x | -10% | 41%[activator] | x | 4% | 0% | x | u
Cc1cc(C)n(-c2nc(NCc3cccnc3)c3c4c(sc3n2)COC(C)(C)C4)n1
→ -55% | 12% | u | 0.4% | 2% | 3% | 7% | u
Cc1ccc(Cl)cc1NC(=O)NCc1ccccn1
→ 6% | 5% | 27% | x | x | -6% | x | x
CC(C#N)Sc1ccc(S(=O)(=O)N2CCCC2)cn1 (stereo unspecified)
→ x | -12% | -15% | x | 13% | -5% | x | 12%
COC(=O)c1cc(Br)c(=O)n(Cc2ccco2)c1
→ -2% | 7% | -2% | 3.4% | -17% | 1% | 10% | -8%
C=CCSc1nc(N)c(C(=O)Nc2ccccc2OC)cc1C(=O)Nc1ccccc1
→ 21% | 12% | 11% | -0.9% | -25% | 4% | u | -9%
Cn1cc(CN(CCO)Cc2cccs2)c(-c2cccc(Cl)c2)n1
→ -7% | -15% | -27% | x | x | -2% | x | x
CCOc1cc(/C=N/n2c(C)nc3sc(C)c(C)c3c2=O)ccc1O
→ -3% | 4% | -12% | x | -19% | 0% | x | -20%
COc1ccccc1C(=O)Nc1onc2c1CCCC2
→ x | x | -31% | -3.1% | u | x | -12% | u
Cc1ccc(NC(=O)c2nnn(CC(=O)Nc3ccc4c(c3)OCO4)c2N)cc1C
→ 1% | 5% | 3% | x | x | 14% | x | x
Cc1ccc(C(=O)OCN2C(=O)c3ccccc3C2=O)cc1S(=O)(=O)N1CCOCC1
→ x | 13% | -3% | x | 19% | 2% | x | u
CCC(C)(C)NC(=O)C(c1ccccc1F)N(Cc1ccco1)C(=O)Cn1nnc2ccccc21 (stereo unspecified)
→ -14% | -13% | -13% | 0.8% | -6% | 14% | -4% | -13%&-13%
Nc1ccc(S(=O)(=O)Nc2cnc3ccccc3n2)cc1
→ 0%&0% | 2%[18.4 µM] | 94%&79%&79%[activator] | 0.6%&-0.3%&-5.9% | x | 0% | 5%&-9%&-15% | x
O=C(NC1(O)C(=O)c2ccccc2C1=O)c1c(Cl)cccc1Cl
→ -51% | -9% | -7% | x | u | 1% | x | -5%[46.1 µM]
CNC(=O)c1ccsc1NC(=O)C1CCCN1S(=O)(=O)c1cccs1 (stereo unspecified)
→ x | 6% | -26% | x | -1% | 6% | x | 4%[46.1 µM]
COCc1cc(C)nc(SCC[N+](C)(C)CC(=O)Nc2cccc(C(F)(F)F)c2)c1C#N
→ x | 6% | -13% | x | 7% | 2% | x | 9%
O=C(Oc1ccc(Br)cc1)c1n[nH]c(=O)c2ccccc12
→ 1% | -17% | 15% | x | -15%[46.1 µM] | 2% | x | 26%[46.1 µM]

The last 2 compounds of the section above come first, to join the parts:
The line under a structure holds: NS1 inh | RE007 growth inh | 2A StopGo | Cruzain Triton | LASV entry inh | SARS PLpro yeast | Cruzain inh noDet | MARV entry inh
COCc1cc(C)nc(SCC[N+](C)(C)CC(=O)Nc2cccc(C(F)(F)F)c2)c1C#N
→ x | 6% | -13% | x | 7% | 2% | x | 9%
O=C(Oc1ccc(Br)cc1)c1n[nH]c(=O)c2ccccc12
→ 1% | -17% | 15% | x | -15%[46.1 µM] | 2% | x | 26%[46.1 µM]
CCc1ccc(OCCCC(=O)NCc2ccco2)cc1
→ -9% | 0% | 19% | x | x | -2% | x | x
CCOc1ccc(CCNC(=O)COC(=O)/C=C/c2ccco2)cc1OCC
→ 2% | 0% | -3% | x | x | u | x | x
NC(=S)N=Nc1c(O)cc(O)c2[nH]c(=O)ccc12
→ x | 15% | -14% | x | 3% | x | x | u
Cc1ccc(-n2nc3ccc(N)cc3n2)cc1C
→ u | u | -35% | x | x | -5% | x | x
Cc1ccc(S(=O)(=O)NCc2ccncc2)cc1C(=O)NCC(C)C
→ -3% | -13% | -2% | x | -2% | -4% | x | -29%
Cc1ccc(S(=O)(=O)c2nnn3c2nc(Nc2cccc(C)c2)c2ccccc23)cc1
→ -6% | -9% | -24% | -8.4% | 17% | -7% | u | 2%
CCn1c(=O)c(C(C)=O)c(O)c2ccccc21
→ -39% | -36% | -15% | x | -8% | 1% | x | 8%[46.1 µM]
CCC(C)[C@H](NC(=O)N1CC(=O)Nc2ccccc21)C(=O)N[C@H](C(=O)O)c1ccccc1 (stereo partly specified)
→ -3% | -9% | -16% | x | x | 2% | x | x
COc1ccccc1-n1c2c(cc(C(=O)N3CCC(C)CC3)c1=O)C(=O)CC(C)(C)C2
→ -4% | 5% | -1% | -3.1% | x | -7% | 3% | 2%
COc1ccc(C(=O)Nc2nnc(S(=O)(=O)Cc3ccc(F)cc3)s2)cc1
→ 14% | 8% | 0% | x | x | -6% | x | x
COC(=O)c1cc(Br)ccc1NC(=O)Nc1ccccc1
→ 8% | 8% | -3% | -2.1% | 4% | 5% | 0% | u
CNC(=S)Nc1ccc(Cc2ccncc2)cc1
→ -4% | 5% | 4% | x | -20%[46.1 µM] | 1% | x | -5%[46.1 µM]
CCC(=O)N1CCc2cc(S(=O)(=O)CCC(=O)NCc3ccc4c(c3)OCO4)ccc21
→ 16% | -25% | -5% | 5.5% | 10% | 9% | 23% | 4%
C[C@H](NC(N)=O)C(=O)Nc1ccc(OCc2ccccc2)cc1
→ x | -11% | 45%[activator] | x | 14%[46.1 µM] | 0% | x | u
CC(C)NC(=O)CCCOc1ccc(Cl)cc1Cl
→ -50% | -1% | x | -2.1% | 5% | -9% | 1% | -4%
CCCCn1c(SCc2nc(N)nc(Nc3ccccc3C)n2)nc2ccccc2c1=O
→ 28% | 6% | u | -0.3% | -27% | -3% | u | u
Cc1ccc2sc(NC(=O)CN3C(=O)c4ccccc4C3=O)nc2c1C
→ 26% | 1% | -9% | -1.6% | -3% | 2% | -13% | -5%
Cc1ccc(C2=N/C(=C\c3cccs3)C(=O)N2Nc2ccccc2)cc1
→ 8% | 2% | -21% | -5.5% | -22% | -18% | u | u
Cc1nnc(SCC(=O)c2ccccc2F)n1Cc1ccccc1
→ -2% | -5% | 16% | x | x | -1% | x | x
COc1ccc(-c2onc(C)c2-c2cscn2)c(O)c1
→ -3% | -6% | -17% | x | -25% | -2% | x | 8%[46.1 µM]
Cc1cc(C)c(NC(=O)CN2CCN3CCCC3C2)c(C)c1 (stereo unspecified)
→ 2% | -2%&-16% | -15%&7% | 1.7% | 10% | 1% | -1% | 2%&-2%
Cc1ccc(N2CCN(C(=O)c3cc4cc5ccc(C)cc5nc4s3)CC2C)cc1 (stereo unspecified)
→ x | x | 43%[activator] | 1.9% | 11%[46.1 µM] | x | 4% | 17%[46.1 µM]
Cc1ccc(-c2nn(C)c(=O)c3ccccc23)cc1S(=O)(=O)NCCCN(C)C
→ x | x | 32%[activator] | -0.3% | 12%[46.1 µM] | x | 0% | -28%[46.1 µM]
CN1CCN(c2ccccc2NC(=O)c2ccc(N3CCCCC3)c([N+](=O)[O-])c2)CC1
→ 4% | -6% | -3% | x | x | 1% | x | x
Cc1ccc(Cl)cc1N(CC(=O)NC1CCCCC1)S(C)(=O)=O
→ -4% | 7% | x | 2.4% | u | 0% | 5% | 16%
Cc1nc(N(C)C)c2sc(=S)n(Cc3ccccc3)c2n1
→ x | 37% | -25% | x | 9% | 0% | x | 1%[46.1 µM]
COc1ccc(OC)c(Cc2nnc(CCC(=O)NC3CCCCCCC3)o2)c1
→ -1% | -10% | 24% | x | 6%[46.1 µM] | 0% | x | u
